# Screening results: PubChem, Johns Hopkins Ion Channel Center
# KCNQ2 pot: KCNQ2 (rat) channel potentiation; B-score at 10 µM; AID 2239; CHO-K1 KCNQ2, FluxOR thallium flux fluorescence; hits give high values; actives 0.54% (n = 310,000);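 active means fluorescence ratio B-score at least 3 SD of library B-scores, with initial fluorescence B-score within 3 SD, cut at about 5.3 in these data; same plate scores as AID 2156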;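 further: B-score of peak minus minimum over baseline fluorescence ratio after K+ and Tl+ stimulus; positive B-score means potentiation of KCNQ2 with more thallium influx and brighter signal; only the inactives scoring about 0 or higher are listed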
# Target sequence (O88943 whole entry, looked up): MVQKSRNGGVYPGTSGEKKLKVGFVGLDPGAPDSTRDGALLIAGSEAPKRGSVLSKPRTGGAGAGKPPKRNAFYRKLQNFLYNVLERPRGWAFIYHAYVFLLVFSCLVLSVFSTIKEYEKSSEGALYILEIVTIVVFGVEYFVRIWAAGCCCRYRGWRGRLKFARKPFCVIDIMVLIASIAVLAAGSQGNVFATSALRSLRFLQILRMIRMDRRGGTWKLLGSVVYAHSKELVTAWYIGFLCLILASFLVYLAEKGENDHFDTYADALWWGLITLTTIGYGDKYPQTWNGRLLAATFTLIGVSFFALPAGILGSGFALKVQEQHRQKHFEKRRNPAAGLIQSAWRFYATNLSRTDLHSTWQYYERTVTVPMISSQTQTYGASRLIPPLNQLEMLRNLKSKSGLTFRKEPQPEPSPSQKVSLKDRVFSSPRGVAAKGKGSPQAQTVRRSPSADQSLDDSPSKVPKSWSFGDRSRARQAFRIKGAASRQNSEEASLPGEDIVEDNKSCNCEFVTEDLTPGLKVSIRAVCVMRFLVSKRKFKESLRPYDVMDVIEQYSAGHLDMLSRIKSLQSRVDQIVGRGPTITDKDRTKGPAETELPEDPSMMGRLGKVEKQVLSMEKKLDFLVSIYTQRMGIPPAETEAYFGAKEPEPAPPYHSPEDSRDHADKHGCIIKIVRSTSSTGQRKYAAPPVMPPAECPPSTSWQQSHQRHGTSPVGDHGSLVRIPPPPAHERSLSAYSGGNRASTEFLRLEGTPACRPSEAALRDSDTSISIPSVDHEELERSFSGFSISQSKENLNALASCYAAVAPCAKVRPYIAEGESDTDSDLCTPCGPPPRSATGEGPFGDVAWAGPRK
# KCNQ2 pot baseline: second read-out of KCNQ2 pot, no call of its own (marks repeat the call); B-score; compound at 10 µM; measured here: initial fluorescence intensity artifact check;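 brightness before thallium and not channel activity; 0 = typical well and far values either way flag optical interference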
# An asterisk follows results filed as active. These rows are one share of the data; count on the stated rates, not on these rows.
KCNQ2 pot	KCNQ2 pot baseline	structure
0.69	-0.54	COc1cc(C)c(Cl)cc1S(=O)(=O)NCc1ccco1
0.32	0.18	O=C(CCCn1c(=S)[nH]c2cc3c(cc2c1=O)OCO3)NCCc1ccccc1Cl
1.1	-0.64	COc1ccccc1C(=O)NCCNc1nc2cc(C)cc(C)c2cc1C#N
1.5	-0.91	CCC1CCCCN1CCCNC(=O)Cn1nc(C)n2nc(-c3ccccc3)cc2c1=O (centres undefined)
0.86	-0.17	O=C(CCNC(=O)c1ccccc1)NCC1CCCCC1
0.61	-0.71	O=C(c1ccc(Cl)cc1)c1ccc(CN2C(=O)c3ccccc3C2=O)o1
3.5	-1.7	Cc1ccccc1C(=O)c1cccn1CC(=O)NCCCc1ccccc1
0.15	-0.88	CC1=C(C(=O)Nc2ccccn2)C(c2ccc(Cl)cc2Cl)NC(=S)N1 (centres undefined)
1	0	CC(=O)c1ccc(OCc2cc(C(=O)NC3CCCCC3)no2)cc1
0.21	-0.41	O=C1CSC(c2cccnc2)N1c1ccc(F)cc1 (centres undefined)
2	0.06	O=C(NCc1ccncc1)c1cncc(Br)c1
1.7	1.2	N/C(=N\c1nc2c(c(=O)[nH]1)CCC2)Nc1cccc(Cl)c1
1.5	-1.2	CCOCCCNc1ncnc2c1[nH]c1ccccc12
0.13	-0.68	O=C(O)COCC(=O)N1CCN(C(c2ccccc2)c2ccccc2)CC1
0.39	0.27	CCOC(=O)c1cc(-c2ccc(C)cc2)nc2nc(SC)[nH]c(=O)c12
0.34	1.2	CCN1CCN(C(=O)/C=C/c2ccc([N+](=O)[O-])cc2)CC1
0.49	1.5	CCn1c(-c2cccnc2)n[nH]c1=S
1.7	-0.82	CN(C(=O)CSc1nnc(-c2ccccc2F)o1)c1ccccc1
1.1	1.4	Cc1ccc(NS(=O)(=O)c2ccc3c(c2)NC(=O)C(C)C(=O)N3)c(Br)c1 (centres undefined)
0.61	-1.8	COc1ccc(C)cc1N(C(=O)COc1cccc(F)c1)c1nc2ccccc2s1
0.04	-0.21	COc1ccc(-c2csc(NC(=O)c3cccs3)c2C(=O)O)cc1OC
1.8	-0.77	CCc1ccccc1NC(=O)Nc1cccc(F)c1
0.61	-1.9	O=C(CSc1ncccc1C(=O)O)c1ccc2ccccc2c1
0.14	-1.4	CN1C(=O)/C(=C\c2ccccc2OCc2ccccc2)SC1=S
0.04	0.35	COCCn1c(=NC(=O)CCS(=O)(=O)c2ccccc2)sc2cc(F)ccc21
0.41	0.51	COc1cc(CNC2CCCCCCC2)ccc1OCC(N)=O
1.3	-1.4	CCOC(=O)Cn1cnc2c(sc3nc(C)cc(C)c32)c1=O
0.01	-1.6	O=C(Cc1cccc2ccccc12)Nc1ccccc1Br
0.41	1.2	CC1C/C(=N/N2C(=O)CSC2=S)CC(C)(C)C1 (centres undefined)
0.81	1.4	Nc1nc(SCC(=O)NC2CCCCC2)n[nH]1
0.12	-0.39	CCc1sc(NC(=O)CN2CCC(C(N)=O)CC2)nc1-c1ccccc1
1.1	-0.18	Cc1ccc(S(=O)(=O)N(C)CCCC(=O)N2CCN(C=O)CC2)cc1
0.12	2.8	CC(C)CNc1cc(Cl)c(S(=O)(=O)NCC(C)C)cc1C(=O)O
1.6	-1.2	Cc1cc(Cl)c(S(=O)(=O)NCc2ccncc2)cc1OCC(N)=O
0.01	-0.96	CC(C)CN(CC(C)C)S(=O)(=O)N1CCC(C(=O)NCCc2ccc(Cl)cc2)CC1
0.01	1.8	Cc1ccc(C(=O)c2c3ccc(C(F)(F)F)cc3[n+]([O-])n2CCCC(N)=O)cc1
0.65	0.62	Cc1ccc(SCC(=O)Nc2ccc(S(=O)(=O)Nc3ncccn3)cc2)cc1
1.4	-2.3	COc1ccc(COC(=O)N/C=C/c2ccco2)cc1
0.17	0.16	CCOC(=O)Cn1nnc(-c2ccccc2)n1
0.87	0.08	COC(=O)CSc1nc(N)c(C#N)c(CC(C)C)c1C#N
0.19	-0.2	CCNC(=O)C(Sc1ccccc1)c1ccccc1 (centres undefined)
0.1	0.73	CCc1ccc(N2CC(C(=O)Nc3ccc(S(=O)(=O)NCC4CCCO4)cc3)CC2=O)cc1 (centres undefined)
1.3	1.6	COc1ccc(NC(=O)C/C(C)=N/NC(=O)C(=O)NC(C)C)c(OC)c1
0.42	0.04	CCC(=O)c1ccc(N2CCN(C(=O)c3ccccc3)CC2)c(F)c1
0.67	-0.05	O=C(c1oc2ccccc2c1N1CCCCC1)N1CCCCC1
1.1	-2.2	CN(C)S(=O)(=O)c1ccc(S(=O)(=O)N2CCCC(C(=O)NC3CC3)C2)cc1 (centres undefined)
0.74	-0.37	O=C(c1ccccc1)N1CCN(Cc2ccccc2)CC1
2.4	1.1	Cn1c(SCc2ccc([N+](=O)[O-])cc2)nnc1-c1cccnc1

# An excerpt of these results, field by field:
CCC(=O)c1ccc(N2CCN(C(=O)c3ccccc3)CC2)c(F)c1
  KCNQ2 pot = 0.42
  KCNQ2 pot baseline = 0.04

CCc1sc(NC(=O)CN2CCC(C(N)=O)CC2)nc1-c1ccccc1
  KCNQ2 pot = 0.12
  KCNQ2 pot baseline = -0.39

CCOC(=O)Cn1nnc(-c2ccccc2)n1
  KCNQ2 pot = 0.17
  KCNQ2 pot baseline = 0.16

COCCn1c(=NC(=O)CCS(=O)(=O)c2ccccc2)sc2cc(F)ccc21
  KCNQ2 pot = 0.04
  KCNQ2 pot baseline = 0.35

# The listing continues.
KCNQ2 pot	KCNQ2 pot baseline	structure
0.01	0.18	CCOC(=O)COc1c(/C=N\OC)cc(Cl)cc1OC
1.3	-1.1	CS(=O)(=O)N1CCC(C(=O)NCc2ccc(Cl)cc2Cl)CC1
0.22	-0.04	Cc1ccc(-n2nc(C)c3c2OC(N)=C(C#N)C3c2ccoc2)cc1 (centres undefined)
1.2	0.65	Cc1onc(-c2c(Cl)cccc2Cl)c1C(=O)N1CCN(c2ncccn2)CC1
0.36	0.12	CCC(=O)NC(=S)Nc1cccc(NC(=O)c2ccc(Cl)cc2Cl)c1
0.33	-2.6	COC(=O)C(c1ccccc1)C(C(=O)OC)c1ccccc1 (centres undefined)
0.26	-0.07	O=C(O)c1cccc(NC(=O)C2C3C=CC(C3)C2C(=O)O)c1 (centres undefined)
0.28	1.2	CC(=O)c1ccc(NC(=O)CSc2nnc(-c3ccco3)c(-c3ccco3)n2)cc1
0.23	-1.5	CC(C)(CC(=O)N1CCN(c2ccc(Cl)cc2)CC1)CC1=NS(=O)(=O)c2ccccc2N1
0.49	0.11	CCCN1C(=O)SC(CC(=O)Nc2ccccc2)C1=O (centres undefined)
0.45	1.1	O=C(Nc1ccccc1Cl)c1ccc2nccnc2c1
0.08	-0.29	Cc1cc(=O)oc2c(C)c(OC(C)C(=O)NCC(O)c3ccccc3)ccc12 (centres undefined)
0.79	-0.96	COc1ccc(CNC(=O)c2oc3ccc(S(=O)(=O)N4CCOCC4)cc3c2C)cc1
0.05	-0.7	O=C(CCCc1ccccc1)NCc1ccccc1
0.08	0.24	CC(C)=CCOc1ccc2ccc(=O)oc2c1
0.99	1.5	COc1ccccc1C(=O)Nc1ccnn1C1CCN(C(C)CSC)CC1 (centres undefined)
0.25	-0.02	CCOC(=O)C1=C(C)N=c2s/c(=C/c3ccc(OCC(=O)O)c(OC)c3)c(=O)n2C1c1ccc(Cl)cc1 (centres undefined)
1.6	0.72	COC(=O)N1C(=O)[C@@](CC(C)C)(c2ccccc2)N1C(=O)OC
0.82	-1.6	COc1cc(C)ccc1OCc1cc(C(=O)NCCN2CCCC(O)C2)no1 (centres undefined)
0.41	2.3	Cc1cccc(NC(=O)CSc2nnc(-c3n[nH]c4ccccc34)o2)c1
0.14	0.17	O=C(COC(=O)CNC(=O)c1ccco1)NCCN1C(=O)CSC1=O
0.88	-0.08	N#Cc1ccc(C(=O)N2CCN(c3ncccn3)CC2)cc1
0.61	-0.24	COc1cccc(-c2nc(-c3ccc(C(=O)O)cc3)no2)c1
5.2	0.24	Cc1cc2occ(CC(=O)NNC(=O)c3ccccc3F)c2cc1C
0.12	0.46	COC(=O)c1noc(-c2ccc(OC)cc2)n1
0.03	-0.47	NC(=O)CC(NC(=O)c1cccc(Br)c1)c1ccc(NCCN2CCOCC2)c([N+](=O)[O-])c1 (centres undefined)
0.71	0.49	COc1cc([N+](=O)[O-])ccc1NC(=O)CSc1nccn1C
0.95	-0.04	N/C(=N\OC(=O)COc1ccc2ccccc2c1)c1ccncc1
0.77	1	Cc1nccc(-c2cccc(NC(=O)Nc3ccc(Cl)cc3)c2)n1
0.21	0.66	O=C(Nc1cc(Cl)ccc1-n1cncn1)c1ccc([N+](=O)[O-])o1
0.01	1	O=C1N=C(N2CCN(c3cccc4ccccc34)CC2)S/C1=C/c1cccs1
0.18	0.5	CCn1cc(S(=O)(=O)CC(=O)Nc2ccc(C)cc2)c2ccccc21
0.26	-1.3	Cc1cccc(CNC(=O)c2ccc3nc(Cc4ccccc4F)oc3c2)n1
3.3	-0.03	CCOC(=O)CCNCC1COc2ccccc2O1 (centres undefined)
0.19	-2.2	CCc1cc(C(=O)N2CCN(c3ncccn3)CC2)sc1C
2	0	O=C(Nc1ccc(-c2nc3ccccc3s2)c(OC(=O)c2ccccc2)c1)c1ccccc1
1.1	-1.4	O=C(CN1C(=O)C2CC=CCC2C1=O)OCc1cc(=O)n2cc(Br)ccc2n1 (centres undefined)
0.16	2.1	COc1ccc(/C=N/n2cnc3c([nH]c4ccc(F)cc43)c2=O)cc1CN1CCCC1
0.75	0.99	CCc1ccc(C(=O)Nc2cc3c(cc2Cl)OCCCO3)cc1
0.05	-0.26	COc1ccccc1N1C(=O)c2cccc3cccc(c23)C1=O
0.09	1.6	CCn1ncc(Br)c1C(=O)Nc1cc([N+](=O)[O-])ccc1C
0.83	-1.5	O=C1c2ccccc2C(=O)N1Cc1cc(-c2ccc(Cl)cc2)no1
0.1	0.01	Cc1ccc(Sc2c(C=O)c3ccccc3n2C)cc1
0.37	0.37	CCCSc1ncc(Cl)c(C(=O)Nc2ccc(S(=O)(=O)Nc3ncccn3)cc2)n1
1.6	0.5	CC(C)(CO)NCC(O)COc1ccc2c(c1)CCC2 (centres undefined)
2.4	-0.02	COc1ccc(OC)c(NC(=O)C2CCCC2)c1
0.13	-0.41	CC(C)S(=O)(=O)N1CCCC(C(=O)c2cccc(Cl)c2)C1 (centres undefined)
11*	0.02*	CN1CCc2c(sc(/N=C/c3cc(C(C)(C)C)ccc3O)c2C#N)C1

# Five structures from above, ordered by molecular weight, high to low:
KCNQ2 pot	KCNQ2 pot baseline	structure
0.37	0.37	CCCSc1ncc(Cl)c(C(=O)Nc2ccc(S(=O)(=O)Nc3ncccn3)cc2)n1
11*	0.02*	CN1CCc2c(sc(/N=C/c3cc(C(C)(C)C)ccc3O)c2C#N)C1
0.13	-0.41	CC(C)S(=O)(=O)N1CCCC(C(=O)c2cccc(Cl)c2)C1 (centres undefined)
0.1	0.01	Cc1ccc(Sc2c(C=O)c3ccccc3n2C)cc1
2.4	-0.02	COc1ccc(OC)c(NC(=O)C2CCCC2)c1

# Next part:
KCNQ2 pot	KCNQ2 pot baseline	structure
0.36	-1.3	Cc1ccc(C)c(SCC(=O)OCC(=O)NCc2ccccc2)c1
0.33	0.07	CC1=C(C)CC(C(=O)c2ccccc2)C(C(=O)O)C1 (centres undefined)
0.68	-0.73	O=C(COC(=O)c1ccccc1NCCO)Nc1cccc(S(=O)(=O)NC2=NCCCCC2)c1
0.59	0.37	Nc1nnc(SCc2ccccc2F)s1
0.4	0.45	O=C(c1ccc(Br)o1)N1CCN(C/C=C/c2ccccc2)CC1
0.3	1.7	Cc1ccc2c(Cl)c(C(=O)NCCc3ccccc3)sc2c1
0.37	1.3	CC(C)Sc1nc2[nH]ncc2c(=O)[nH]1
0.8	-0.78	O=C1NC2(CCCCC2)C(=O)N1Cc1cccc(C(F)(F)F)c1
0.6	-0.77	CCc1ccc(OC(C)C(=O)Nc2ccc(S(=O)(=O)Nc3cc(C)on3)cc2)cc1 (centres undefined)
0.03	-1.4	CCOC(=O)c1[nH]c(C)c(C(=O)OCC(=O)Nc2sc3c(c2C#N)CCCCC3)c1C
0.08	-0.01	Cc1ccc(CC2CC(=O)N(c3cc(Cl)ccn3)C2=O)cc1 (centres undefined)
0.22	-1.3	CSCCC(NC(=O)c1ccc(=O)n(C)n1)c1nc2ccccc2[nH]1 (centres undefined)
0.15	1.5	COc1ccccc1/C=N/NC(=O)C(NC(=O)c1ccccc1)=C(C)C
0.17	1.2	COc1ccc(Br)cc1S(=O)(=O)N1CCN=C1c1ccccc1
0.03	-0.27	Cc1cc2nc(C)n(CCCN)c2cc1C
1.5	-0.01	CC(=O)c1c(C)[nH]c(C(=O)CSc2ccc(F)cc2)c1C
1.5	0.06	COc1ccc(S(=O)(=O)N2CCC(C(=O)N3CCCC3)CC2)cc1Cl
0.21	1.3	Cc1nn(C(C)C(=O)NCc2cccs2)c(=O)c2nn(-c3ccccc3)c(C)c12 (centres undefined)
1.4	-1.9	CCOC(=O)N1CCC(NCc2c(C(=O)N(C)Cc3ccccc3)nc3ccccn23)CC1
3.6	-0.32	CCc1nn(CC(=O)NCCCN2CCN(CC)CC2)c(=O)c2cc3occc3n12
0.23	-0.15	COc1ccc(CNC(=O)C2CCN(c3nccs3)CC2)cc1
